Compound activity as filed in PubChem.
Beta cell apopt: beta cell apoptosis inhibition; AID 435005; 0.8% of 300,000 active; protection from apoptosis, % (no concentration beside the values); INS-1E cytokine-induced death, ATP luminescence, 48 h; percent of positive-control rescue, neutral wells zero;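 active = all replicates at 75% or more, or half of them and the mean; inconclusive = half reach 75% but not the mean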;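 also: 0% = cytokine-treated negative control wells and 100% = positive control rescue; higher means more ATP so stronger rescue from cytokine killing; wells of about 40 µL received 100 nL stock; the first replicate is given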
MLL AF4-AF9 inh: MLL-AF4/AF9 protein interaction inhibition | P42568 | 0.47% of 350,000 active | AID 651704 | inhibition, % at 10 µM | AlphaScreen, biotin-AF4 peptide binding to FLAG-AF9;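 active = every replicate reaching a set inhibition limit, whatever the replicate mean, cut at about 25% in these data; inconclusive = mean inhibition reaches that limit but some replicates miss it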;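 also: 0% = plate neutral control median and 100% = total signal loss; the record names both 10 and 1 µM as test concentration; the first replicate is given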
Target sequence (P42568 whole entry, looked up): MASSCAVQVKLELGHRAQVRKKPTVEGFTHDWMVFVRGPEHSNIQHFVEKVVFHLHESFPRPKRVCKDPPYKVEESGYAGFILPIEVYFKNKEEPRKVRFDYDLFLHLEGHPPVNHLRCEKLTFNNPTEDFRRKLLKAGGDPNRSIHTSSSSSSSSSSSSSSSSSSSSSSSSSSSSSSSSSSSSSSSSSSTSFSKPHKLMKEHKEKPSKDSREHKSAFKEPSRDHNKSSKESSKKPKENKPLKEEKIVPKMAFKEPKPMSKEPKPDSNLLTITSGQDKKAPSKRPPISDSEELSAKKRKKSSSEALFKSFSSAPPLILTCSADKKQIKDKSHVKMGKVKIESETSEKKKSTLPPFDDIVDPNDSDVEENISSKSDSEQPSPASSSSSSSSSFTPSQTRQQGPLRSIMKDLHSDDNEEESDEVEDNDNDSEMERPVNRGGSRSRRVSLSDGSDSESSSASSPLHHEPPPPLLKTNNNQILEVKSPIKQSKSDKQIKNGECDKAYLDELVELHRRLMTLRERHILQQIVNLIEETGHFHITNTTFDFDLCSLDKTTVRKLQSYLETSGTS
T cruzi repl: blocks replication of Trypanosoma cruzi; T. cruzi beta-gal in NIH3T3, luminescence, 90 h; inhibition, % (no concentration beside the values); 1.4% of 300,000 active;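 active = mean inhibition across valid replicates above about 55%, limit read from the data; inconclusive = mean below that limit but half or more replicates reach it; inactive = mean below it, under half of replicates reach it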;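 also: signal also drops with host cell toxicity which is not excluded here; 0% = plate median of DMSO wells and 100% = zero luminescence signal; higher percent means less beta-gal luminescence so fewer parasites; stock transfer was 50 nL into about 50 µL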
RanGTP-Impb inh: inhibitors of RanGTP-importin-beta interaction, primary screen, biochemical, FRET, CFP-Ran, YFP-importin-beta, homogeneous. cell-free CFP-Ran/YFP-importin-beta FRET ratio. inhibition, % (test concentration not listed). 1.1% of 300,000 active;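 active = most replicates above 15%; inconclusive = exactly half above 15%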;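 also: 0% = DMSO wells and 100% = Ran loaded with GDP instead of GTP; wells of about 40 µL received 100 nL stock; the first replicate is given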
Vif TR-FRET: HIV-1 Vif–A3G interaction blockers – biochemical, TR-FRET, GST-Vif 1-94, biotin-A3G peptide, dose response retest, primary screen (AID 1117319); 0.57% of 260,000 active; TR-FRET GST-Vif / biotin-A3G peptide binding; higher % means a stronger effect; test concentration not given here; strong numbers were not always called active; inhibition, %, or IC50 in µM where a hit was titrated;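 active = above the screen mean plus three standard deviations and confirmed in dose response; inconclusive = results disagree or hit not tested in dose response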;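 also: Vif residues 1-94 fused to GST binding biotinylated APOBEC3G peptide 110-148; 0% = full assay without inhibitor and 100% = GST in place of GST-Vif; retest series ran down from 100 µM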
Calb FLC: affects C. albicans growth with fluconazole. AID 1979. growth inhibition, % (test concentration not listed). 0.57% of 300,000 active. C. albicans CaCi-2 (fluconazole-resistant clinical isolate) + fluconazole, Alamar Blue growth, 48 h;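 active = most replicates above 75%; inconclusive = exactly half above 75%; inactive = most below 75%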;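 also: all wells also contain fluconazole at 8 µg/ml as a sub-toxic cotreatment; 0% = median of DMSO wells and 100% = median of geldanamycin control wells; wells of about 8 µL received 7.5 nL stock; the first replicate is given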
rRNA inh HTS: inhibitors of bacterial rRNA selective over humanized ribosomes; AID 720706; 1.6% of 350,000 active; E. coli WT GFP vs humanized-ribosome RFP mutants, fluorescence, 24 h; active compounds read low; DMSO median 0, no signal -100; GFP signal change (wild-type ribosome), % (no concentration beside the values);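 active = significant combined selectivity score with lowered wild-type GFP, culture density cut under 30%, mutant RFP and density less affected; inactive = any of these conditions unmet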; also: one replicate is shown; some compounds called inactive have numbers as strong as hits
Bfl-1 A1 inh: inhibitors of the anti-apoptotic protein A1, read as caspase activation; 0.066% of 330,000 active; caspase activation, % (test concentration not listed); MEF A1-2A-BIM cells, Caspase-Glo 3/7 luminescence, 3 h; percent of clofoctol response, vehicle zero; AID 2462;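 active = over half of replicate activation scores above 10%, or exactly half above 10 with the replicate mean above 10; inconclusive = replicate mean below 10 yet half the replicates above 10; inactive = over half of replicates below 10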;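 also: wells of about 30 µL received 50 nL stock; many hits fall short of the cut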
rRNA inh HTS OD600: recorded beside rRNA inh HTS, whose call it bears; OD600 change, %; measured here: OD600 growth;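 optical density of the mix in the first replicate; 0 = DMSO median and -100 = no signal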
rRNA inh HTS RFP: also measured in rRNA inh HTS; calls as there; RFP signal change, %; measured here: RFP humanized mutant strains;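 first replicate; 0 = DMSO median and -100 = no signal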
An asterisk follows results filed as active; ? = inconclusive; nt = not tested or not shown; & = joins results of further samples. A portion of the library; rates above refer to the full screens.

SMILES | rRNA inh HTS | Calb FLC | Vif TR-FRET | RanGTP-Impb inh | MLL AF4-AF9 inh | T cruzi repl | Beta cell apopt | rRNA inh HTS RFP | rRNA inh HTS OD600 | Bfl-1 A1 inh
Cc1cc(C)n(C2CC(=O)N(c3ccc(Cl)c(Cl)c3)C2=O)n1 (stereo unspecified) | -9 | 27 | nt | 3.0 | -0.3 | -12 | 2 | -1.7 | -13 | -0.2
Cc1nc2ccc(Br)cc2c2c1CC(CO)O2 (stereo unspecified) | -1 | 0 | -9% | -3.3 | -2.4 | 8 | -6 | 1.0 | 2 | ?
COc1ccc(N2CC(C(=O)Nc3cc(C)ccn3)CC2=O)cc1 (stereo unspecified) | 7 | -5 | -3% | -0.4 | -5.9 | -1 | -24 | 5.4 | 14 | 0.0
CCOC(=O)c1c(C)nc2sc3c(=O)n(-c4ccc(OC)cc4)cnc3c2c1-c1ccc(OC)cc1 | nt | -2 | -42% | -0.2 | nt | 2 | 15 | nt | nt | 0.8
CCCN1C(=O)c2ccc(C(=O)NCc3ccco3)cc2C1=O | nt | 6 | 18% | 1.6 | nt | -11 | 3 | nt | nt | -0.2
CN1/C(=C/C(=O)c2ccc(Cl)cc2)Sc2cc3c(cc21)OCO3 | nt | ? | -21% | 36* | nt | 5 | -7 | nt | nt | -0.2
CCOC(=O)c1nnn(-c2nc(N3CCCC3)nc(N3CCCC3)n2)c1-c1ccccc1 | nt | -1 | 3%&-8% | -5.0 | nt | 29 | -1 | nt | nt | 0.4
Cc1cccc(OCCCC(=O)NNC(=O)c2ccc(F)cc2)c1 | 11 | nt | -3% | nt | -4.9 | nt | 3 | 0.3 | 13 | -0.5
CCCc1cc(=O)n2[nH]c(NCc3ccccc3F)nc2n1 | nt | 5 | 1% | 0.0 | nt | -3 | 3 | nt | nt | 0.6
C/C(=N\OCC(=O)OC(C)C(=O)Nc1ccc(C(N)=O)cc1)c1ccc2c(c1)OCO2 (stereo unspecified) | 0 | -1 | nt | 3.3 | 0.2 | 1 | 0 | 4.5 | -1 | -0.4
NC(=O)c1ccccc1OCc1nnc(-c2ccccc2Br)o1 | 1 | -4 | nt | -2.3 | 0.8 | 2 | 7 | 0.0 | 11 | 0.3
O=C1CC(c2ccc(F)cc2)CC(O)=C1C=NCCN1CCNCC1 (stereo unspecified) | nt | 7 | 2% | 5.3 | nt | 5 | -3 | nt | nt | 0.3
Nc1ncnc(Sc2ccccc2)c1[N+](=O)[O-] | nt | -9 | nt | -4.9 | 3.1 | 4 | -23 | nt | nt | -2.0
CCN(CC(=O)Nc1ccc(OC)cc1)C(=O)CCS(=O)(=O)c1ccc(C)cc1 | 1 | -1 | nt | 1.3 | -1.8 | -4 | -2 | 0.1 | -1 | -0.9
CCN(CC)c1ccc2c(C)c(CN3CCOCC3)c(=O)oc2c1 | nt | 59 | -2% | 1.2 | nt | 8 | 9 | nt | nt | 0.2
COc1cc(C(=O)OCC(=O)NC2CCS(=O)(=O)C2)c([N+](=O)[O-])cc1OC (stereo unspecified) | 19 | 15 | -5% | -2.7 | -1.9 | -2 | 2 | 4.8 | 10 | 0.5
N#Cc1ccc(CN2CCN(C(=O)CNS(=O)(=O)c3ccc4c(c3)OCCCO4)CC2)cc1 | 9 | nt | -3% | nt | -0.6 | nt | -1 | -2.2 | 3 | -0.6
CC/C(=N\NC(=O)C1CCCC1)c1ccc(Br)cc1 | 11 | 17 | nt | 0.5 | -1.0 | -5 | -5 | 0.2 | 9 | 0.2
CC1CCCC(C)N1C(=O)Cn1c(SCC(=O)NCc2ccc3c(c2)OCO3)nc2ccccc21 (stereo unspecified) | nt | -2 | -6%&3% | -3.9 | nt | 21 | -7 | nt | nt | -0.6
Cc1c(NC(=O)c2cccs2)cccc1NC(=O)c1cccs1 | 13 | -4 | nt | 4.5 | -0.5 | 5 | 2 | -0.4 | 17 | -1.0
Cn1cncc1C#Cc1ccc2cc(C(C)(C)O)oc(=O)c2c1 | -10 | nt | nt | nt | -1.5 | nt | -3 | 0.5 | -1 | -0.8
Cc1csc2nc(CSc3nc4ccccc4o3)c(Br)n12 | nt | 9 | 4% | -3.2 | nt | 36 | 3 | nt | nt | -1.2
COc1cccc(N2CCN(c3nc(C)cc(=O)[nH]3)CC2)c1 | 9 | 18 | 5% | -1.0 | 2.4 | -6 | -6 | 1.4 | 9 | 0.9
N#Cc1nc(-c2ccccc2)oc1N1CCC(C(N)=O)CC1 | -3 | -2 | nt | 9.3 | 1.6 | -17 | 3 | -5.9 | -2 | 1.5
COc1ccccc1CNC(=O)c1cnc2sccn2c1=O | 2 | -1 | nt | -1.3 | 3.4 | -11 | -7 | -1.3 | 7 | 0.0
CCCCC(=O)N1CCCC(C(=O)OCC)C1 (stereo unspecified) | nt | -10 | -3% | -1.3 | nt | -19 | 3 | nt | nt | -0.8
COCCN(C(=O)COC(=O)CCc1c[nH]c2ccccc12)c1c(N)n(Cc2ccccc2)c(=O)[nH]c1=O | 3 | -6 | -3% | 2.2 | -4.1 | 14 | -7 | -2.5 | 9 | 0.0
CCOC(=O)c1ccc(NC(=O)CN2C(=O)NC3(CCCCCCC3)C2=O)cc1 | -1 | nt | nt | nt | -14 | nt | -2 | 2.2 | 3 | -0.9
Cc1ccc(-c2noc(-c3ccno3)n2)cc1 | -5 | 4 | -2% | 3.5 | 4.8 | -17 | nt | -1.3 | -12 | -4.7
O=C(O)c1cccc(NC(=O)c2cccc(S(=O)(=O)N3CCc4ccccc4C3)c2)c1 | -27 | 2 | -1% | 1.1 | 0.2 | 1 | -2 | 6.8 | -34 | -2.5
CN1CCN(CC(=O)Nc2nc3ccccc3s2)CC1 | 11 | -3 | 1% | 0.4 | -0.7 | 5 | nt | 2.3 | 16 | -0.1
CCC1Nc2ncnc(N3CCOCC3)c2N(Cc2ccc(Br)cc2)C1=O (stereo unspecified) | -8&-1 | nt | nt | nt | 3.2&0.3 | nt | -1 | -2.1&1.9 | -6&4 | 0.7
Cc1ccc(C)c(NC(=O)CSc2nnc([C@@H]3CCCN3C(=O)OC(C)(C)C)o2)c1 | nt | -9 | 0% | 7.9 | nt | 1 | 0 | nt | nt | -1.3
CC(=O)OC(C(=O)NCc1ccco1)c1ccncc1 (stereo unspecified) | nt | 8 | ? | 5.3 | nt | -12 | -1 | nt | nt | 0.0
COCCn1c(C)cc(C2=NNC(=NC3CC3)SC2)c1C | 10 | -1 | nt | 3.6 | 11 | 2 | 3 | 0.0 | -2 | -9.8
CCN1CCN(C(=O)c2ccc3c(=O)n(CCC4=CCCCC4)c(=O)[nH]c3c2)CC1 | nt | 12 | 10% | 1.4 | nt | 0 | 0 | nt | nt | 1.1
COc1ccc(N2CCN(CCCNC(=O)CCC(=O)N3CCOc4ccc(Cl)cc43)CC2)cc1 | -7 | 3 | nt | 4.4 | 38* | -6 | -1 | -2.5 | -9 | -0.4
N#C/C(=C\c1c(N(Cc2ccccc2)Cc2ccccc2)nc2ccccn2c1=O)C(N)=O | nt | -10 | 0% | -0.3 | nt | 26 | 13 | nt | nt | -1.3
O=C1NCCN/C1=C\C(=O)c1ccc(F)cc1 | 20 | -4 | 7% | -3.6 | 2.4 | -17 | 6 | 2.9 | 7 | -0.2
CC(C)NC(=O)CCCc1cn(C)c2ccccc12 | 9 | 3 | 5% | 2.0 | 4.6 | -12 | 1 | 0.4 | 5 | 0.0
CCn1cc(C(=O)NCC2CCCO2)c(=O)c2cc(F)c(N3CCN(C)CC3)cc21 (stereo unspecified) | nt | 1 | ? | -2.7 | nt | 14 | -5 | nt | nt | 0.6
O=C(Nc1ccccc1-c1ccccc1)C(=O)Nc1ccccc1-c1ccccc1 | nt | 5 | 28% | -2.1 | nt | 1 | -1 | nt | nt | 0.2
Cc1cccc(Nc2nc(N)nc(CN3CCN(c4ccccc4F)CC3)n2)c1 | nt | 10 | nt | 1.7 | nt | 10 | -1 | nt | nt | 0.6
OCCCc1nc2ccccc2n1CCCCOc1ccccc1 | -24 | 15 | 2% | 2.6 | -1.3 | 7 | -5 | -7.9 | -45 | -1.1
Cc1ccc(S(=O)(=O)c2nc(-c3cccs3)oc2SCC(N)=O)cc1 | nt | -11 | -36% | -2.8 | nt | 11 | -13 | nt | nt | 0.0
CC(=O)C1=C(C)NC(SCC(N)=O)=C(C#N)C1c1ccco1 (stereo unspecified) | 4 | 0 | -5% | -0.6 | -2.8 | -20 | -1 | -3.5 | 4 | 0.3
Cc1cc(C)nc(/N=C(\N)Nc2ccc(OCc3ccccc3)cc2)n1 | -21 | -18 | nt | ? | 12 | 45 | 45 | -3.2 | -40 | 0.1
O=C(CCCC(=O)c1ccc(O)cc1)c1ccc(O)cc1 | -19 | 9 | nt | -0.2 | 0.8 | -26 | 1 | -13 | -8 | -7.3
FC(F)(F)c1cnc(-c2cnc3c(-c4ccc(Cl)cc4)cnn3c2)c(Cl)c1 | nt | -2 | 9% | 2.0 | nt | -19 | -4 | nt | nt | -0.4
Cn1c(CCN2CCCCC2)nc2cc([N+](=O)[O-])ccc21 | 15 | -2 | 4% | -4.2 | 4.4 | -15 | -6 | 0.4 | -2 | 0.4
CCCCNCC(O)(c1ccc(Cl)cc1)c1ccc(Cl)cc1 | -17 | -32 | 22% | 0.5 | -1.9 | 9 | 18 | 24 | -52 | -0.2
CCN(CC)S(=O)(=O)c1ccc(C2=NOC3(C2)N(C)c2ccccc2C3(C)C)cc1 (stereo unspecified) | 17 | 4 | -2% | -5.9 | -4.6 | 28 | 12 | -0.9 | 1 | 0.9
CCC1CCCCN1C(=O)CSc1nc(N)cc(=O)[nH]1 (stereo unspecified) | -2 | -5 | nt | -2.6 | -1.2 | -5 | -2 | 1.4 | 10 | -1.3
CCCOc1ccc(OCC(=O)c2[nH]c(C)c(C(C)=O)c2C)cc1 | 2 | -4 | 11% | 0.3 | 2.1 | -11 | 27 | -13 | 8 | 1.3
CCn1cc(CN2CCC(n3nccc3NC(=O)CCCc3ccccc3)CC2)cn1 | 19 | -5 | nt | 3.1 | 1.9 | 41 | 1 | -1.0 | 13 | 0.0
O=C(N/N=C/c1ccccc1)c1cc[n+]([O-])cc1 | 9 | 0 | nt | 0.5 | 4.9 | -3 | -3 | -3.5 | 14 | -0.5
CCN(C(=O)C(C)N1C(=O)/C(=C/c2cccs2)SC1=S)C1CCS(=O)(=O)C1 (stereo unspecified) | 0 | -3 | ? | 1.5 | 14 | -28 | 2 | 12 | -17 | -0.1
CCCCN(C)C(=O)c1nc2ccccn2c1CNCCCn1nnc2ccccc21 | 14 | -7 | 20% | 1.9 | 0.2 | -3 | -3 | 1.8 | 6 | -0.5
